# UCH37 DUB inh – inhibitors of human UCH37 deubiquitinase, primary screen, biochemical, Ub-AMC cleavage, fluorescence; hit rate 0.33% among 330,000; Ubiquitin carboxyl-terminal hydrolase isozyme L5 (Homo sapiens), Q9Y5K5; inhibition, % (concentration not given with the values); purified proteasome/UCH37;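 active = mean of two replicates above 20%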;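 also: 0% = compound-free wells with enzyme and 100% = wells lacking proteasome; stock transfer was 100 nL into about 20 µL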
# Target sequence (Q9Y5K5 whole entry, looked up): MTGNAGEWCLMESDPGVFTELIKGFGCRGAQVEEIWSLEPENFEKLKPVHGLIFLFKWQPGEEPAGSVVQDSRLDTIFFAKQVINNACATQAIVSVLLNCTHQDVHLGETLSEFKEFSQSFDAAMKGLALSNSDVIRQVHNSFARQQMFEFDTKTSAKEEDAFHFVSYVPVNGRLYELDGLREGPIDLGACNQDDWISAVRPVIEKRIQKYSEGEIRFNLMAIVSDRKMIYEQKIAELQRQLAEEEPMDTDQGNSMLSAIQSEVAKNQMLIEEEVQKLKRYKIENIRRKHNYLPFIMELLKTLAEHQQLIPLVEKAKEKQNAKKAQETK
#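 Material: human UCH37 enzyme supplied as purified proteasome complex. Measure: % inhibition of Ub-AMC cleavage fluorescence. Medium: pH 7.4 Tris-HCl (50 mM) with ovalbumin, ATP-MgCl2, DTT. Times: 30 min preincubation with enzyme, 25 min cleavage at room temperature. Detection: AMC fluorescence intensity at 355/460 nm.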
# FGF22 binding – binders of human FGF22 protein, primary screen, FGF22 synaptogenesis inhibitor project, biophysical, thermal shift, single point. AID 651658, 2012. calls only at 9.99 µM. recombinant FGF22 thermal shift, SYPRO orange fluorescence; percent of sucrose octasulfate shift, DMSO zero. hit rate 1.5% among 340,000;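 active = melting point raised past a set limit in the mean and every replicate; three in four hits are not shown here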
# Target sequence (Q9HCT0 whole entry, looked up): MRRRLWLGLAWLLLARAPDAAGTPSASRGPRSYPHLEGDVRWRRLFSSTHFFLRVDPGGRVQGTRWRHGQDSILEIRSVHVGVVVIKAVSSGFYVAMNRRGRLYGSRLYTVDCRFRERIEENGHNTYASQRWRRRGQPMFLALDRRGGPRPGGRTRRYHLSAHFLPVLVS
# * = called active by the depositor; i = inactive; . = no result given. An excerpt (hit frequency here may not be typical).
item	smiles	FGF22 binding	UCH37 DUB inh
1	CC(=N/N=C1/NC(=O)C(CC(=O)NCc2ccccc2)S1)C(C)C (stereo not drawn)	.	3.6
2	O=[N+]([O-])c1cc(C=NN/C(=N/c2ccccn2)c2ccccn2)ccc1O	.	3.6
3	CCC(=O)Nc1ccc(C(C)=NNC(=O)c2c(-c3ccccc3Cl)noc2C)cc1	.	1.4
4	COc1cc(C=N/N=C2/NC(=O)C(Cc3ccccc3)S2)ccc1O (stereo not drawn)	.	7.5
5	O=C1NCC(c2ccccc2)C1C(=O)NN=Cc1ccc(-c2cccc(Cl)c2Cl)o1 (stereo not drawn)	.	2.8
6	CC(CCN1CCc2nc(-c3ccccc3)c(-c3ccccc3)cc2C1)=NO[C@@H](C)c1cc(-c2c(C)cc(C)cc2C)no1	.	-1.5
7	Br/C(C=NNc1nc2ccccc2[nH]1)=C\c1ccccc1	.	-3.5
8	Cc1ccc(C=NNC(=O)c2cc([N+](=O)[O-])cc([N+](=O)[O-])c2)o1	.	5.3
9	CCOC(=O)c1c(N=CN(C)C)sc(C=NNc2ccccc2)c1-c1ccc(Cl)cc1	.	-0.6
10	O=C1CSC(=S)N1N=Cc1ccc(O)c([N+](=O)[O-])c1	.	7.8
11	C#CCOCCOCCOCCNc1nc(N2CCN(C(=O)[C@H](CCC(=O)O)n3cc(C(N)CO)nn3)CC2)nc(N2CCN(C(=O)[C@H](CCCCN)n3cc(C(N)[C@H](C)CC)nn3)CC2)n1 (stereo partly drawn)	.	3.6
12	C#CCOCCOCCOCCNc1nc(N2CCN(C(=O)[C@H](CCCCN)n3cc([C@@H](N)CO)nn3)CC2)nc(N2CCN(C(=O)[C@H](Cc3cc4ccccc4[nH]3)n3cc([C@@H](N)CO)nn3)CC2)n1	.	0.9
13	CC(=O)OC[C@H]1O[C@H](CC=NO[C@@H](C)c2cn([C@H](CO)Cc3ccccc3)nn2)C=C[C@@H]1OC(C)=O	.	3.5
14	CCc1ccc(Nc2nnc(SCC(=O)c3ccc4c(c3)NC(=O)CO4)s2)cc1	.	1.8
15	C#CCOCCOCCOCCNc1nc(N2CCN(C(=O)[C@H]([C@@H](C)CC)n3cc(CCCN=C(N)N)nn3)CC2)nc(N2CCN(C(=O)[C@H]([C@@H](C)CC)n3cc(CCCN=C(N)N)nn3)CC2)n1	.	-0.8

# Structures above containing a halogen (4):
item	smiles	FGF22 binding	UCH37 DUB inh
3	CCC(=O)Nc1ccc(C(C)=NNC(=O)c2c(-c3ccccc3Cl)noc2C)cc1	.	1.4
5	O=C1NCC(c2ccccc2)C1C(=O)NN=Cc1ccc(-c2cccc(Cl)c2Cl)o1 (stereo not drawn)	.	2.8
7	Br/C(C=NNc1nc2ccccc2[nH]1)=C\c1ccccc1	.	-3.5
9	CCOC(=O)c1c(N=CN(C)C)sc(C=NNc2ccccc2)c1-c1ccc(Cl)cc1	.	-0.6

# Back to the main list, starting 2 compounds before the break.
item	smiles	FGF22 binding	UCH37 DUB inh
14	CCc1ccc(Nc2nnc(SCC(=O)c3ccc4c(c3)NC(=O)CO4)s2)cc1	.	1.8
15	C#CCOCCOCCOCCNc1nc(N2CCN(C(=O)[C@H]([C@@H](C)CC)n3cc(CCCN=C(N)N)nn3)CC2)nc(N2CCN(C(=O)[C@H]([C@@H](C)CC)n3cc(CCCN=C(N)N)nn3)CC2)n1	.	-0.8
16	CC(/C=C/c1ccco1)=NNC(=O)CNc1ccccc1C	.	5.3
17	C/C(C=NNC(=O)CSc1ccccn1)=C/c1ccc(C(C)C)cc1	.	1.1
18	CO[C@H]1C=CO[C@@]2(C)Oc3c(C)c(O)c4c(O)c(c(C=NN5CCN(C6CCCC6)CC5)c(O)c4c3C2=O)NC(=O)C(C)=CC=C[C@H](C)[C@H](O)[C@@H](C)[C@@H](O)[C@@H](C)[C@H](OC(C)=O)[C@@H]1C	.	7.5
19	CC(C)C(C(=O)N1CCN(C(=O)OC(C)(C)C)CC1)n1cc(-c2cn([C@@H](C)C(=O)N3CCN(C(=O)OC(C)(C)C)CC3)nn2)nn1 (stereo partly drawn)	.	2.4
20	CCc1cc2c(nc1CC)CCN(CCC(C)=NOC[C@H]1O[C@H](c3ccccc3)C=C[C@@H]1Oc1ccc(OC)cc1)C2	.	0.8
21	O=C(CSc1ccccn1)NN=Cc1cccc([N+](=O)[O-])c1	.	2.4
22	C#CCOCCOCCOCCNc1nc(N2CCN(C(=O)C([C@@H](C)CC)n3cc(C(N)CO)nn3)CC2)nc(N2CCN(C(=O)[C@H](CCC(=O)O)n3cc(C(N)[C@H](C)CC)nn3)CC2)n1 (stereo partly drawn)	.	1.0
23	Fc1ccc(C=NNC(=S)Nc2ccc(Cl)cc2)cc1F	.	6.3
24	C(/C=C/c1ccccc1)=NNc1nc(N2CCCCC2)nc(N2CCCCC2)n1	.	2.1
25	CCN(CC)S(=O)(=O)c1ccc2c(c1)c(=O)c(C(=O)NCc1ccc3c(c1)OCO3)cn2C	.	0.7
26	CCC(=NNc1cccc(C)c1)c1cnnc(SC)n1	.	2.8
27	CCn1c(SCC(=O)NN=C/C=C\c2ccco2)nc2ccccc21	.	4.0
28	Cn1cccc1-c1cc(C(=O)NN=C/C=C/c2ccccc2)[nH]n1	.	6.3
29	O=C(O)COc1ccccc1C=NNC(=O)/C(=C\c1ccc2c(c1)OCO2)NC(=O)c1ccccc1	.	3.6
30	O=C(O)CC1S/C(=N/N=CC2CC=CCC2)NC1=O (stereo not drawn)	.	5.6
31	O=C(Nc1ccc(F)cc1)N[C@H]1CC[C@@H](CC(=O)N2CCCCC2)O[C@@H]1CO	i	.
32	CN(C)CC(=O)N[C@@H]1C[C@@H]2O[C@@H](CO)CC[C@@H]2O[C@@H]1CCc1ccc(-c2ccc(F)cc2)cc1	i	.
33	O=C(C[C@@H]1C=C[C@@H](NC(=O)NC2CCCCC2)[C@@H](CO)O1)NCc1ccccc1	i	.
34	COC(=O)c1c2oc(c1C(=O)OC)C(=O)N(C)Cc1cn(nn1)C[C@@H](C)NC(=O)N[C@H](CO)CC2	i	.
35	COCCOC(=O)N1C(=O)[C@@]2(c3cc(C#CCCO)ccc31)[C@H](C(=O)NC[C@H](O)c1ccccc1)[C@H]1C(=O)O[C@H](c3ccccc3)[C@H](c3ccccc3)N1[C@@H]2c1ccc(O)cc1	i	.
36	Cc1ccc(S(=O)(=O)N(C)C[C@@H]2Oc3ncc(-c4ccncc4)cc3C(=O)N([C@@H](C)CO)C[C@@H]2C)cc1	i	.
37	Cc1ccc(S(=O)(=O)Nc2ccc3c(c2)CC(=O)N([C@H](C)CO)C[C@H](C)[C@H](CN(C)CC2CCCCC2)O3)cc1	i	.
38	COCCCN1C(=O)[C@@]2(Cc3ccccc31)c1ccccc1C(=O)N(Cc1ccccc1)[C@H]2c1ccc(CO)cc1	i	.
39	COc1ccc(COCC23N=C4SCc5ccccc5CN4[C@H](c4ccccc4O2)[C@H]3CO)cc1	i	.
40	O=C1C=CCCN1C(=O)/C=C/c1ccccc1Cl	i	.
41	CC(=O)[C@]12O[C@@]3(COC[C@H](c4ccccc4)N3C1=O)[C@H]1C(=O)N(c3ccccc3)C(=O)[C@H]12	i	.
42	Cc1ccccc1S(=O)(=O)N1CCCCN2[C@@H](CO)[C@H](c3ccc(-c4ccccc4)cc3)[C@@H]2C1	i	.
43	COc1ccc(-c2cn(CCNC(=O)[C@H](Cc3ccccc3)NS(=O)(=O)c3ccc(C)cc3)nn2)cc1OC	i	.
44	COc1ccccc1S(=O)(=O)N(C)C[C@@H]1Oc2cc(C#CCC3CCCC3)ccc2S(=O)(=O)N([C@H](C)CO)C[C@H]1C	i	.
45	OC[C@H]1[C@@H](c2ccc(/C=C/c3ccccc3)cc2)[C@@H]2CN(Cc3cncnc3)CCCCN12	i	.
46	O=C(C1=C[C@H](c2coc3ccccc3c2=O)C[C@H](OCc2ccc(CO)cc2)O1)N1CCCCCCC1	i	.
47	CCc1cccc(NC(=O)O[C@H]2[C@H](OC(=O)Nc3ccccc3-c3ccccc3)[C@H](OC(=O)Nc3ccccc3-c3ccccc3)[C@@H](OC)O[C@@H]2CO)c1	i	.
48	CN(C)C(=O)c1cccc(-c2ccc([C@H]3[C@H](CO)N4CCCCN(C(=O)C5CCCC5)C[C@@H]34)cc2)c1	i	.
49	COc1ccc(C#Cc2ccc3c(c2)[C@]2(C(=O)N3)[C@H](c3ccc(OCCO)cc3)N3[C@H](c4ccccc4)[C@H](c4ccccc4)OC(=O)[C@H]3[C@@H]2C(N)=O)cc1	i	.
50	O=C(N[C@@H]1C[C@@H]2O[C@@H](CO)CC[C@@H]2O[C@@H]1CCc1ccc(-c2ccccc2)cc1)c1cnccn1	i	.
51	O=C(Nc1ccccc1)C1=C[C@@H](c2ccc3c(c2)Cc2ccccc2-3)C[C@@H](OCCCCO)O1	i	.
52	O=C(C[C@H]1C=C[C@H](NC(=O)NC2CCCCC2)[C@H](CO)O1)NCc1ccccc1	i	.
53	[N-]=[N+]=Nc1ccccc1C[C@@]1(C(=O)NCCN2CCOCC2)N=C(c2ccc(OCCCO)cc2)O[C@@H]1c1ccccc1N=[N+]=[N-]	i	.
54	COC(=O)C(CC#Cc1ccc2c(c1)[C@]1(C(=O)N2)[C@H](c2ccccc2OCCO)N2[C@H](c3ccccc3)[C@H](c3ccccc3)OC(=O)[C@H]2[C@@H]1C(=O)Nc1nc2ccccc2s1)C(=O)OC	i	.
55	COc1ccc([Si](C)(C)[C@@H]2[C@@H](CCO)O[C@]3(C(=O)N(c4ccccc4)c4ccccc43)[C@H]2C)cc1	i	.
56	C/C=C/[C@@H](CCn1cc([C@H](O)c2ccccc2)nn1)[Si](C)(C)c1ccc(OC)cc1	i	.
57	CO[C@H]1O[C@H](CO)[C@@H](OC(=O)Nc2ccc3c(c2)OCO3)[C@@H]2OC(=O)[C@@H](Cc3ccccc3)C/C=C/C[C@H](Cc3ccccc3)C(=O)O[C@@H]12	i	.
58	CC(C)(C)OC(=O)COc1cccc(C(=O)CCN2CCOCC2)c1	i	.
59	C#CCNC(=O)C1=C[C@H](c2ccc(C#C)cc2)C[C@H](OCCCCO)O1	i	.
60	[N-]=[N+]=Nc1ccccc1C[C@]1(C(=O)N2CCCCC2)N=C(c2ccc(OCCCO)cc2)O[C@H]1c1ccccc1	i	.
61	COCCOC(=O)N1C(=O)[C@@]2(c3cc(C#CC4=CCCCC4)ccc31)[C@H](c1ccccc1OCCO)N1[C@H](c3ccccc3)[C@H](c3ccccc3)OC(=O)[C@H]1[C@@H]2C(=O)NC[C@H](O)c1ccccc1	i	.
62	C=CCNC(=O)[C@H]1[C@@H]2C(=O)O[C@@H](c3ccccc3)[C@@H](c3ccccc3)N2[C@@H](c2ccc(O)cc2)[C@]12C(=O)Nc1ccc(C#CCCO)cc12	i	.
63	C[C@@H]1CCCCO[C@H](CN(C)C(=O)Nc2ccccc2)[C@@H](C)CN([C@@H](C)CO)C(=O)c2cc(N(C)C)ccc2O1	i	.
64	CO[C@H]1O[C@H](CO)[C@@H](OC(=O)Nc2ccccc2)[C@H](OC(=O)Nc2ccc3c(c2)OCO3)[C@@H]1OC(=O)Nc1ccc2c(c1)OCO2	i	.
65	COc1ccc([Si](C)(C)[C@@H]2[C@@H](CCO)O[C@]3(C(=O)N(C)c4ccccc43)[C@H]2C)cc1	i	.
66	COc1ccc(COC[C@]23NC(=O)N[C@H](c4ccccc4O2)[C@H]3CO)cc1	i	.
67	Cc1noc(C)c1S(=O)(=O)N(C)C[C@@H]1OCCCC[C@H](C)Oc2ccc(N(C)C)cc2C(=O)N([C@H](C)CO)C[C@@H]1C	i	.

# Retrieved by compound from above, 2 records:
item	smiles	FGF22 binding	UCH37 DUB inh
61	COCCOC(=O)N1C(=O)[C@@]2(c3cc(C#CC4=CCCCC4)ccc31)[C@H](c1ccccc1OCCO)N1[C@H](c3ccccc3)[C@H](c3ccccc3)OC(=O)[C@H]1[C@@H]2C(=O)NC[C@H](O)c1ccccc1	i	.
66	COc1ccc(COC[C@]23NC(=O)N[C@H](c4ccccc4O2)[C@H]3CO)cc1	i	.

# High-throughput results: PubChem, several laboratories
